From PubChem BioAssay
2A StopGo = High Throughput Screening for Foot and Mouth Disease Virus Antivirals. 410,000 compounds, 1.2% hits. human cells with a luciferase reporter of 2A StopGo recoding; control for the full effect not named in the record. Potency, µM (series often up to 57.9 µM), inactives show top-dose signal change, negative = less light. AID 1159524, 2015; active = well fitted falling curve with a large enough effect; inconclusive = small, poorly fitted or top-dose-only effect; inactive = no such curve, though single readings can be large or run the other way; tested in HEK293T cells; also: % is scaled to controls: 0 for no effect and ±100 for the full control effect; nearly all actives have a fitted effect of over 45% in size; luciferase light after 4 h
RE007 growth inh = qHTS Assay for Inhibitors of the HIV-1 protein Vpr | S. pombe RE007 Vpr strain, BacTiter-Glo ATP luminescence, 24 h; control for the full effect not named in the record | Potency, µM (titrated, usually from 92.2 µM), for inactives: at the highest dose activity change, negative = less growth | 360,000 compounds, 0.21% hits; active = well fitted falling curve with a large enough effect; inconclusive = small, poorly fitted or top-dose-only effect; inactive = no such curve, though single readings can be large or run the other way;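 also: % is scaled to controls: 0 for no effect and ±100 for the full control effect; nearly all actives have a fitted effect of over 50% in size; the assay follows cell death caused by Vpr and the record does not say whether a fall means rescue or toxicity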
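Fission yeast strain RE007, carrying one chromosomally integrated HIV-1 vpr copy, was seeded at OD 0.01 in PMG+AL medium with 23 nL pinned compound. After 24 h at 30 °C and 99% humidity, viability was read by BacTiter-Glo luminescence.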
SARS PLP yeast = qHTS of Yeast-based Assay for SARS-CoV PLP; S. cerevisiae expressing SARS-CoV PLpro, growth rescue; control for the full effect not named in the record; Potency, µM (highest dose often 32.9 µM), without a hit: top-dose activity, positive = growth rescue; 330,000 compounds, 0.19% hits; AID 485353, 2010; active means well fitted rising curve with a large enough effect; inconclusive means small, poorly fitted or top-dose-only effect; inactive means no such curve, though single readings can be large or run the other way; also: 0% is about no effect; nearly all actives have a fitted effect of over 55% in size; growth read by luminescence after 48 h
* marks the source's active call; other numbers are inactive results; ? = inconclusive; [ ] = another dose, or the depositor's remark. Potency is read from the fitted curve at half-maximal effect.

structure | 2A StopGo | RE007 growth inh | SARS PLP yeast
CCN(C[C@H]1N[C@@](C)(C(=O)OC)[C@H]2C(=O)N(C)C(=O)[C@@H]12)C(=O)COC | -6% | 3% | -1%
COc1ccc(C(=O)/C=C/c2ccc(O)cc2)c2c1CC(O)C(C)(C)O2 (stereo not drawn) | ? | -9% | -6%
CC[C@@]12C(=O)N(c3cccc(Br)c3)C(=O)N1[C@H](c1ccc(F)cc1)[C@@H]1C(=O)N(C3CCCCC3)C(=O)[C@@H]12 | -19% | -4% | -11%
Cc1ccc(CNC(=O)c2ccc(C)c(S(=O)(=O)N3CCCCC3)c2)cc1 | -11% | 2% | 3%
COc1ccc(N(C)S(=O)(=O)c2cccc(C(=O)Nc3nc(C)cs3)c2)cc1 | -10% | 5% | -1%
Cc1ccccc1NC(=O)COC(=O)C1=COCCO1 | -2% | -10% | -2%
COC(=O)Cc1sc(-c2ccccn2)nc1-c1ccccc1 | 0% | -18% | 2%
CC(=O)NC(Nc1c(C)n(C)n(-c2ccccc2)c1=O)C(Cl)(Cl)Cl (stereo not drawn) | -6% | -19% | -1%
CCn1ccc(=O)c2cc3c(cc21)OCO3 | 1% | 13% | 0%
COc1ccc2[nH]c3c(c2c1)CCN1C(=O)C(CC(=O)NCCc2ccccn2)C[C@H](C(=O)N2CCCCC2)[C@@]31C (stereo partly drawn) | -9% | -12% | -13%
O=C(Cc1ccc2ccccc2c1)NC(Cc1ccccc1)C(=O)O (stereo not drawn) | -3% | 7% | ?
O=C(CSc1c2c(nc3cc(Cl)ccc13)CCCC2)NCCCN1CCOCC1 | ? | -1% | -1%
CC(C)NC(=O)c1ccc(NC(=O)CC2SC(N3CCCCC3)=NC2=O)cc1 (stereo not drawn) | 5% | -6% | -1%
COc1ccc(CNC(=O)c2noc(C)c2[N+](=O)[O-])cc1 | -1% | 13% | 1%
O=C(O)c1cccc(NC(=S)NC(NC(=O)c2ccccc2[N+](=O)[O-])C(Cl)(Cl)Cl)c1 (stereo not drawn) | -13% | 11% | 0%
C=CC[C@@H](CC(=O)N[C@@H](CO)Cc1ccccc1)C(=O)N[C@@H](COC(=O)[C@H](CC=C)CC(=O)OC(C)(C)C)Cc1c[nH]c2ccccc12 | -17% | 21% | 3%
CCOC(=O)c1c(-c2ccccc2)csc1N1C(=O)Nc2ccccc2N1O | 0% | -1% | -1%
CCOC(=O)C(C)N(c1ccccc1Cl)S(C)(=O)=O (stereo not drawn) | -5% | 13% | -4%
COc1cccc(NC(=O)C(C)C)c1 | -15% | -3% | 4%
CCN(C(=O)CSc1ccccn1)C1CCCCC1 | 6% | 4% | -3%

Limited to SARS PLP yeast and 2A StopGo, for 2 of the compounds above:
SMILES | SARS PLP yeast | 2A StopGo
O=C(O)c1cccc(NC(=S)NC(NC(=O)c2ccccc2[N+](=O)[O-])C(Cl)(Cl)Cl)c1 (stereo not drawn) | 0% | -13%
COc1cccc(NC(=O)C(C)C)c1 | 4% | -15%

Back to the main list, repeating the 2 entries before the break.
structure | 2A StopGo | RE007 growth inh | SARS PLP yeast
COc1cccc(NC(=O)C(C)C)c1 | -15% | -3% | 4%
CCN(C(=O)CSc1ccccn1)C1CCCCC1 | 6% | 4% | -3%
O=C(NCCc1ccc(C(F)(F)F)cc1)C1CC(=O)N(c2ccc3c(c2)OCCO3)C1 (stereo not drawn) | -15% | 9% | 0%
O=C(COC(=O)c1ccccc1O)Nc1cccc(S(=O)(=O)N2CCCC2)c1 | -18% | 4% | 2%
COc1ccc(Cl)cc1NC(=O)CSc1nnc(CNC(=O)c2ccco2)o1 | -10% | 5% | -2%
COc1ccc(NC(=O)N(C)C[C@@H]2Oc3ccc(NC(=O)NC(C)C)cc3CC(=O)N([C@H](C)CO)C[C@@H]2C)cc1 | 2% | -4% | 11%
CC1CCC2(CC1)NC(=O)N(NC(=O)c1cccs1)C2=O (stereo not drawn) | 6% | 10% | 6%
CCOC(=O)N1CCC(NC(=O)c2cc(C(=O)Nc3ccc(S(=O)(=O)N4CCOCC4)cc3)ccc2CO)CC1 | -7% | -20% | 0%
CCC(C(=O)OCC(=O)Nc1cccc(OC)c1)c1ccccc1 (stereo not drawn) | 7% | 7% | -1%
CCOc1cc(/C=C2/COc3ccccc3C2=O)ccc1OCC(=O)N(C)C | ? | -8% | -5%
CCOC(C[n+]1c(-c2ccccc2)cc(C)cc1-c1ccccc1)OCC | -23% | -19% | -4%
O=C(COC(=O)c1ccc(S(=O)(=O)NCc2ccco2)cc1)NCc1ccc(F)cc1 | -20% | -9% | 0%
COc1ccc(C)cc1NC(=O)COC(=O)CCC(=O)c1cccs1 | -18% | -10% | -3%
CCc1ccc(NC(=O)c2noc(C(C)C)c2[N+](=O)[O-])cc1 | 12% | -26% | -7%
Fc1cccc(F)c1-n1c(CN2CCOCC2)csc1=S | -21% | -16% | 0%
CCCCN1CC(=O)N2[C@H]3c4cc(C)ccc4OC[C@@H]3[C@H](C(=O)OCC)[C@]2(C)C1=O | -3% | -12% | -12%
O=C(NCc1ccncc1)C(=O)NCC(c1ccco1)N1CCN(c2ccccc2)CC1 (stereo not drawn) | -14% | 3% | 0%
CC1(C)CC(=O)C=C(c2cccc(O)c2)C1=O | -17% | -15% | 3%
O=S(=O)(Nc1ccccc1N1CCOCC1)c1ccccc1C(F)(F)F | -3% | -6% | 0%
NCCCCCc1cn([C@@H](CO)C(=O)NCCCCCCCCCCC(=O)N2CCNCC2)nn1 | 4% | -15% | 1%
CC(=O)C1C(c2ccc(Cl)cc2)c2c(n[nH]c2C)CC1(C)O (stereo not drawn) | -5% | -5% | -4%
CCCN(CC(=O)Nc1ccccc1C)C(=O)CCCOc1ccc(Br)cc1 | -16% | -6% | 1%

In a second layout: entries from further up.
CCOC(=O)N1CCC(NC(=O)c2cc(C(=O)Nc3ccc(S(=O)(=O)N4CCOCC4)cc3)ccc2CO)CC1
  2A StopGo: -7% | RE007 growth inh: -20% | SARS PLP yeast: 0%
COc1ccc(NC(=O)N(C)C[C@@H]2Oc3ccc(NC(=O)NC(C)C)cc3CC(=O)N([C@H](C)CO)C[C@@H]2C)cc1
  2A StopGo: 2% | RE007 growth inh: -4% | SARS PLP yeast: 11%
COc1ccc(Cl)cc1NC(=O)CSc1nnc(CNC(=O)c2ccco2)o1
  2A StopGo: -10% | RE007 growth inh: 5% | SARS PLP yeast: -2%
CCOc1cc(/C=C2/COc3ccccc3C2=O)ccc1OCC(=O)N(C)C
  2A StopGo: ? | RE007 growth inh: -8% | SARS PLP yeast: -5%

As entered above:
`Fc1cccc(F)c1-n1c(CN2CCOCC2)csc1=S` – 2A StopGo: -21%
`CCOc1cc(/C=C2/COc3ccccc3C2=O)ccc1OCC(=O)N(C)C` – SARS PLP yeast: -5%

Carrying on:
structure | 2A StopGo | RE007 growth inh | SARS PLP yeast
CCC(C)N(C(=O)CSc1nnnn1-c1ccccc1OC)C1CCS(=O)(=O)C1 (stereo not drawn) | -15% | 3% | -3%
O=C(OCCCc1cc2ccccc2c(=O)o1)c1ccccc1C(F)(F)F | -5% | 7% | -5%
C#CCOCCOCCOCCNc1nc(N2CCN(C(=O)CCCCCCCCCCNC(=O)Cn3cc(CCCCCN)nn3)CC2)nc(N2CCN(C(=O)CCCCCCCCCCNC(=O)[C@@H]([C@H](C)O)n3cc(C)nn3)CC2)n1 | -24% | 8% | -5%
COc1ccc(SC[C@H](Cc2ccccc2)N2CC[C@@H](O)CCC2=O)cc1 | 19% | 12% | 3%
CC(=O)Nc1ccc(OCC(=O)NCc2ccc(C)cc2)cc1 | 2% | 16% | 2%
O=C(Nc1sc2c(c1C(=O)O)CCCCC2)c1cccs1 | 0% | ? | -25%
COc1ccc([C@H]2CC(=O)C=C(c3c(C)cc(C)cc3C)C2)cc1 | 0% | 17% | 2%
COc1ccc(NC(=O)CN(C)C2CCS(=O)(=O)C2)cc1 (stereo not drawn) | -19% | 0% | -6%
Cc1ccc(S(=O)(=O)N2C/C=C\CN(S(=O)(=O)c3ccccc3Br)CC2)cc1 | -1% | -2% | -4%
COc1ccc(S(=O)(=O)N2CCN(CC(=O)N3CCc4ccccc4C3)CC2)cc1OC | -8% | 10% | 2%
CC[C@@]1(C(=O)OC)N[C@H](CN(C)C(=O)COC)[C@@H]2C(=O)N(Cc3ccccc3)C(=O)[C@@H]21 | 3% | 7% | 1%
Cc1cccc(NC(=S)NCC(c2ccccc2)N(C)C)c1 (stereo not drawn) | 14% | -17% | 2%
C=CCN(Cc1cccc(OC)c1OC)C(=O)Oc1ccccc1 | -7% | -4% | 3%
COc1ccc(C2=NOC(Cn3nc(-c4ccccc4)cc3C(=O)NCc3ccco3)C2)cc1 (stereo not drawn) | -2% | -16% | -6%
O=C(CSc1nc2c(cnn2-c2cccc(Cl)c2)c(=O)[nH]1)NCCC1=CCCCC1 | -28% | 19% | 1%
CCN(c1ccccc1)S(=O)(=O)c1ccc(C(=O)NCC2(N(C)C)CCCCC2)cc1 | -7% | -3% | -1%
Cc1cccc(N2CC(C(=O)NCC3COc4ccccc4O3)CC2=O)c1C (stereo not drawn) | -8% | 6% | 3%
CC1CCCN(C(=O)c2ccc3c(c2)OCCO3)C1 (stereo not drawn) | 52%[activator] | 7% | 1%
CCN(C(=O)COC(=O)Cc1ccc(F)cc1)c1c(N)n(Cc2ccccc2)c(=O)[nH]c1=O | -9% | 3% | -4%
O=C(COC(=O)Cc1ccsc1)Nc1ccc(Br)cc1 | -15% | 5% | 1%
Cc1ccc(Nc2nc(N)nc(COC(=O)C3=COCCO3)n2)cc1 | 50%[activator] | 3% | 0%
N#Cc1ccc(CN2CCN(C(=O)c3ccc(S(=O)(=O)N4CCCCCC4)cc3)CC2)cc1 | 14µM* | -2% | 17%
C[C@H](NC(=O)c1nc[nH]c1C(=O)N1CCN(c2ccccc2)CC1)c1ccccc1 | -12% | 8% | -18%
CC(C)(C)OC(=O)C[C@@H]1C/C=C\C[C@H](CC(=O)N[C@H](CO)Cc2ccccc2)C(=O)N[C@@H](Cc2ccccc2)COC1=O | -17% | 9% | -6%
CC(C)Oc1ccc(S(=O)(=O)N2CCOCC2)cc1NC(=O)C1CCCCC1 | -13% | -8% | 1%
C[C@@H]1CN([C@@H](C)CO)C(=O)c2cc(NC(=O)Nc3ccc(F)cc3)ccc2O[C@@H]1CN(C)Cc1ccc(Oc2ccccc2)cc1 | 0% | 9% | 0%
CC(=O)N(C)c1ccc(NC(=S)Nc2ccc(C(C)C)cc2)cc1 | -21% | 1% | 1%
COc1ccc(NC(=O)N(C)C[C@H]2Oc3c(NC(=O)C4CCCCC4)cccc3C(=O)N([C@H](C)CO)C[C@@H]2C)cc1 | 27% | -1% | 4%
CCN(CC)S(=O)(=O)c1ccc2[nH]c(=O)cc(C(=O)N(C)C3CCS(=O)(=O)C3)c2c1 (stereo not drawn) | -12% | 15% | -1%
C#CCOCCOCCOCCNc1nc(N2CCN(C(=O)[C@H](CCCN=C(N)N)n3cc(C(N)[C@@H](C)CC)nn3)CC2)nc(N2CCN(C(=O)[C@H](CCC(=O)O)n3cc([C@@H](N)[C@H](C)CC)nn3)CC2)n1 (stereo partly drawn) | -8% | 35% | ?
COc1cc(NCc2ccccc2)c2ncn(C(C)C)c2c1 | -14% | -8% | -5%
O=C(NC1=NCCS1)c1cccc(OC(F)F)c1 | 67%[activator] | 6% | -1%
CC(C)N(Cc1ccccc1)C(=O)CSc1nccn1C | 6% | 8% | 2%
Cc1ccc(C)c(Sc2ccc(NC(=O)CCN3C(=O)NC4(CCCC4)C3=O)cc2)c1 | ? | -9% | 1%
OC(CN1CCOCC1)c1ccc(F)cc1 (stereo not drawn) | -12% | 4% | -1%
Cc1ccc(NC(=O)C2CC(=O)N(CCc3ccccc3)C2)cc1Cl (stereo not drawn) | -13% | ? | 1%
CC12CCC(=O)N1C(C(=O)Nc1nc3ccccc3s1)CS2 (stereo not drawn) | 22% | 1% | -1%
Cc1cc(C)c(NC(=O)CSc2nc3ccccc3c(=O)n2CCCN2CCOCC2)c(C)c1 | -13% | -9% | 0%
CCOC(=O)c1[nH]c(C)c(C(=O)OCC(=O)NCc2ccc(Cl)cc2)c1C | 1% | -10% | 2%
Oc1ccc(Cl)cc1CNCc1cccc2ccccc12 | 21% | -18% | 0%
CN(Cc1ccccc1)C(=O)c1ccc(NC(=O)Cc2cccc(NC(=O)C3CCN(C(=O)C4CC4)CC3)c2)cc1 | 25% | 6% | 0%
CC(C)CC(NC(N)=O)C(=O)Nc1ccc2c(c1)OCO2 (stereo not drawn) | 28% | 2% | -1%
Cc1cc(C)n(CC(C)(O)c2ccccc2)n1 (stereo not drawn) | 3% | -6% | 2%

Not all compounds are listed, so the mix of outcomes need not match the whole.
